# Source: PubChem (several laboratories)
# GALR2 ag – agonists of human galanin receptor 2 (GALR2); O43603; GALR2-expressing cells, agonist activation read-out; activation, %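 (tested at 5 µM)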; 140,000 compounds, 0.48% hits;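 active means above mean plus 3 SD of all compounds, about 5% in these data, not always enough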;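 further: 0% = vehicle buffer wells and 100% = reference agonist at full effect; tested in CHO reporter cells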
# Target sequence (O43603 whole entry, looked up): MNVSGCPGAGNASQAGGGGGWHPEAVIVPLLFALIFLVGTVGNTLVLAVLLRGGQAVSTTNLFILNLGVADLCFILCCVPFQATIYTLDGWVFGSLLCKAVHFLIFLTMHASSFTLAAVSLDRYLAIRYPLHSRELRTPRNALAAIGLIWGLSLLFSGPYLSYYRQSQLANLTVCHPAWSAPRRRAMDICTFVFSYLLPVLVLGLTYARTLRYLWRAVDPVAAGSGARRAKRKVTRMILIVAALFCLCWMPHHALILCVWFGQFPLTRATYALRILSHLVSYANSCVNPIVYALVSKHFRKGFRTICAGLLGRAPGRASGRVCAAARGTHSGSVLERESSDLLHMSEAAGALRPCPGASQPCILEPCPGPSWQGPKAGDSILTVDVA
# PKD1 kinase inh – PKD1 (human) kinase inhibition; Q15139; inhibition, %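 (about 10 µM by stock and volumes)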; AID 797; 200,000 compounds, 0.056% hits; PKD1 kinase fluorescence polarization assay;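 active means inhibition of 50% or more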;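 further: controls were vehicle for no effect and a reference inhibitor for full effect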
# RGS16-Gao – modulates binding between human RGS16 and Galphao; bead-based flow cytometry RGS16-Galphao binding, fluorescence; actives lie on both sides; binding response (% of control), % at 10 µM; 220,000 compounds, 0.38% hits; AID 1441;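 active means below 25% or above 175%, edge rows of some plates excepted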;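 further: Galphao activated by GDP with aluminum fluoride before binding; 100% = wells without compound and 0% = beads without RGS; some results beyond the cut were filed as inactive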
# Target sequence (O15492 whole entry, looked up): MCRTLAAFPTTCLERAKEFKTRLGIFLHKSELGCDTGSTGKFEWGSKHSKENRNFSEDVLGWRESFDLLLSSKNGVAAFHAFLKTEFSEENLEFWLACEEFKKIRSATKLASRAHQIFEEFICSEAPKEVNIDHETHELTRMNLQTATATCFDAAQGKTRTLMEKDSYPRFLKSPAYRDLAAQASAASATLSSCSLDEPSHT
# Target sequence (P09471 whole entry, looked up): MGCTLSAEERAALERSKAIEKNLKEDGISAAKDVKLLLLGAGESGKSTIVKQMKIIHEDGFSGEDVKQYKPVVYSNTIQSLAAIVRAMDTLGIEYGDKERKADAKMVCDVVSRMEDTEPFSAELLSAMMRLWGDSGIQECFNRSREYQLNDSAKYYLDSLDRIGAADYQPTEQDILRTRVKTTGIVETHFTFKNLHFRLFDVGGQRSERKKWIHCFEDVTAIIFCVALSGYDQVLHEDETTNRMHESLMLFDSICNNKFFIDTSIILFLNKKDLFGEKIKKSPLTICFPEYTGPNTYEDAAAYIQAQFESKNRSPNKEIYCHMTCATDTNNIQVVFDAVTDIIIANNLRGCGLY
# HSV replic up – HSV replication enhancement. HSV replication augmentation in cells, fold increase. maximum fold increase. 220,000 compounds, 0.005% hits;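 active means peak rise of 1.5-fold or more in the series; inconclusive means self-fluorescent or not available for retest; tested in PC3 cells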;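 further: first round at 10 µM; read as green reporter fluorescence; hits show the peak of a series up to 25 µM; 1 = signal of infected wells without compound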
# INS promoter inh – TRM-6 insulin promoter activity inhibition | inhibition, % at 2 µM | TRM-6 cells (human fetal islet line), insulin promoter-eGFP reporter, imaging; reporter expression induced with tamoxifen | 130,000 compounds, 0.9% hits | AID 1273;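 active means inhibition above the mean plus 3 SD, with well images judged a real hit on visual review, cut at about 60% in these data, passing the limit was not always enough; inconclusive means inhibition over the cutoff but images rejected on review; inactive means inhibition not above the cutoff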
# INS promoter inh cell count – recorded beside INS promoter inh, whose call it bears; normalized cell count, %; measured here: cell count, toxicity; reference of the scale not given here;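 cells exposed to compound for 48 h; stained nuclei by imaging scaled within each plate; lower means fewer cells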
# HSV replic up primary fold – further read-out of HSV replic up, marked with its call; fold increase; compound at 10 µM; measured here: primary screen fold increase 10 uM; tested in PC3 cells;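 GFP signal in the first replicate; 1 = infected wells without compound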
# * hit, by the source's call; i = inactive; ? = inconclusive; · = not tested or not shown.
SMILES,GALR2 ag,PKD1 kinase inh,RGS16-Gao,HSV replic up,HSV replic up primary fold,INS promoter inh,INS promoter inh cell count
Clc1ccc(-c2nc3cnccn3c2NC2CCCC2)cc1,-2.7,6.9,95.9,i,0.88,25.7,113.0
O=C(O)C1CSC2(c3ccc(F)cc3)CCC(=O)N12 (stereo not drawn),·,-5.0,109.2,i,0.98,45.0,62.1
CCC(c1nnc(SCC(=O)Nc2cc(Cl)ccc2C#N)n1C1CCCCC1)N(C)C (stereo not drawn),-1.0,-7.9,122.3,i,1.06,-10.7,65.7
C[C@@H](Nc1nc(-c2ccccc2)nc2c1oc1ccccc12)C(=O)O,-4.1,3.7,120.0,i,1.13,·,·
COC(=O)c1sccc1NC(=O)COc1ccccc1Cl,-2.0,-4.9,68.8,i,0.99,·,·
CCCc1cc(-c2[nH]ncc2-c2ccc(C(=O)OCC)o2)c(O)cc1O,-1.9,2.9,98.8,i,0.86,·,·
CCOC(=O)c1[nH]c(C)c(C(=O)Nc2ccc(C)c(Cl)c2)c1C,-3.0,-5.1,100.6,i,0.77,36.0,128.8
COc1cc(OC)c(OC)cc1/C=C/c1cc(C(=O)O)c2ccccc2n1,·,7.2,103.3,i,1.06,·,·
Cc1noc(C)c1C(=O)NCCC1=CCCCC1,-1.2,-3.6,100.2,i,0.65,13.2,94.7
CC1CN(c2c3c(nc4ncnn24)CCCC3)CC(C)O1 (stereo not drawn),-1.0,-2.0,100.8,i,0.82,30.0,136.8
Cc1ccc(NC(=O)CSc2nnnn2C)cc1S(=O)(=O)N(C)C,0.0,-4.0,102.0,i,0.86,2.6,95.5
C(=N\Nc1nc2ccccc2[nH]1)/c1ccccc1,·,3.2,99.3,i,0.98,·,·
CSc1nc2ccccc2n1Cc1cccc([N+](=O)[O-])c1,-1.0,8.8,101.9,i,1.06,3.2,122.8
COc1ccc(S(=O)(=O)Nc2ccc3c(c2)n(C)c(=O)n3C)cc1,·,0.4,96.4,i,0.98,16.3,116.4
COC(=O)Cn1c(=NC(=O)C2COc3ccccc3O2)sc2cc(S(N)(=O)=O)ccc21 (stereo not drawn),0.5,-4.0,95.6,i,0.79,24.0,145.0
CC(=O)Nc1ccc(N2CCN(C(=O)c3cccs3)CC2)cc1,-2.0,-10.6,78.3,i,0.85,50.0,101.8
C/C(=N\NC(=O)c1c(Cl)c(C)nn1C)c1cccc(NC(=O)COc2ccccc2)c1,-2.5,12.0,59.3,?,·,·,·
CCCOc1ccc(C(O)CCNC(CC(=O)O)c2ccccc2)cc1 (stereo not drawn),-2.0,-0.4,109.3,i,0.93,43.8,78.5
COC(=O)c1cccc(NC(=O)CCc2cc(OC)c(OC)c(OC)c2)c1,-2.0,-7.3,108.7,i,0.96,-21.6,98.3
CCN(CC(=O)Nc1ccc2c(c1)OCCO2)Cc1cc(=O)oc2c(C)c(C)ccc12,0.9,2.5,101.5,i,0.96,·,·

# In the list so far, two have a thiophene ring, fused or not:
SMILES,GALR2 ag,PKD1 kinase inh,RGS16-Gao,HSV replic up,HSV replic up primary fold,INS promoter inh,INS promoter inh cell count
COC(=O)c1sccc1NC(=O)COc1ccccc1Cl,-2.0,-4.9,68.8,i,0.99,·,·
CC(=O)Nc1ccc(N2CCN(C(=O)c3cccs3)CC2)cc1,-2.0,-10.6,78.3,i,0.85,50.0,101.8

# Next results:
SMILES,GALR2 ag,PKD1 kinase inh,RGS16-Gao,HSV replic up,HSV replic up primary fold,INS promoter inh,INS promoter inh cell count
CCOC(=O)c1nc(Nc2ccccc2)c2ccccc2n1,-0.1,0.1,104.7,i,0.97,·,·
Cc1[nH]n(-c2ccccc2)c(=O)c1C=NCc1ccncc1,·,·,105.4,i,1.19,·,·
CCOC(=O)c1ccc(NC(=O)C(=O)NCC2(c3ccc(OC)cc3)CCOCC2)cc1,·,·,99.4,i,0.94,·,·
CC(C)c1ccccc1NC(=O)Cn1c(-c2ccccc2Cl)nc2ccccc21,-2.5,-11.9,101.0,i,0.94,·,·
CN(C)c1ccc(NC(=O)CCCc2ccccc2)cc1,-1.5,-11.3,91.1,i,0.89,63.6,46.0
CC(C)C[C@H](NC(=O)c1nc[nH]c1C(=O)N(C)Cc1ccccc1)C(=O)OCc1ccccc1,·,-3.8,114.9,i,0.82,·,·
Cc1ccc2nsnc2c1S(=O)(=O)N(Cc1ccco1)Cc1cc2cccc(C)c2[nH]c1=O,-2.4,-1.6,119.5,i,0.61,0.0,80.6
CN(CC(=O)O/N=C(\N)c1ccccn1)S(=O)(=O)c1ccc(Br)cc1,-0.3,-4.1,104.1,i,0.86,0.0,89.7
CCc1nnc(NC(=O)CSc2nc3cccnc3n2Cc2ccccc2)s1,-0.9,3.6,98.0,i,1,10.3,68.1
Cc1cc(=O)cc(C)[nH]1,-1.2,-11.9,105.9,i,1.14,·,·
CCNC(=S)NS(=O)(=O)c1ccccc1,-4.1,10.9,97.4,i,1.03,-19.4,103.2
O=C1c2ccccc2C(=O)N1CCN1CCCCC1,-0.5,-4.1,128.2,·,·,-19.4,86.6
CCc1ccc(OCC(=O)N/N=C(\C)c2ccc(OC(F)F)cc2)cc1,0.1,-1.2,66.7,i,0.98,0.0,51.2
Cc1ccc(C(=O)CSc2nnc(-c3ccco3)n2Cc2ccccc2)cc1,-4.8,5.9,103.1,i,1,18.2,83.7
CC1(C)CC(=O)C2=C(C1)N1CCCCC1CC2=O (stereo not drawn),-2.6,-5.3,98.0,i,1.01,·,·
CN(CCO)C(=O)C(c1ccccc1)c1ccccc1,·,·,104.4,i,0.89,·,·
O=C(O)C1CCCCN1S(=O)(=O)c1ccc(Cl)s1 (stereo not drawn),-0.9,-3.2,94.9,i,0.98,·,·
Cc1ccc(C)c(N(CC(=O)Nc2ccccc2C(=O)NCc2ccco2)S(=O)(=O)c2ccccc2)c1,-1.6,-13.5,99.7,i,0.99,·,·
Cc1ccc(OCC(=O)NNC(=S)NCc2ccccc2)cc1,·,-3.7,100.9,i,1,·,·
COC(=O)c1nnn(CC(=O)Nc2ccc(C)c(F)c2)c1C(=O)OC,-1.2,6.2,-33.4,i,0.96,27.0,96.9
COc1cccc(NC(=O)c2cc3c(=O)n4ccccc4nc3n(CC(C)C)c2=N)c1,·,4.4,92.2,i,0.87,37.5,94.5
CCOC(=O)C1(Cc2ccccc2)CCCN(CCCn2cccn2)C1 (stereo not drawn),·,-3.0,100.8,i,0.98,·,·
COc1ccc(CCN2C(=O)CC(N3CCC(C(N)=O)CC3)C2=O)cc1OC (stereo not drawn),·,·,98.6,i,0.89,·,·
CS(=O)(=O)N(CC(=O)Nc1ccc2c(c1)OCO2)c1ccc(Cl)cc1,-3.6,-7.5,105.6,i,0.88,·,·
Cc1sc2ncnc(N3CCN(c4ncccn4)CC3)c2c1C,-1.0,-3.4,98.9,i,0.94,14.3,152.1
CC1=NCCN1S(=O)(=O)c1cccc([N+](=O)[O-])c1,·,1.3,96.5,i,1.05,·,·
O=C(Nc1ccc2c(c1)OCCO2)c1cnc2n(c1=O)CCS2,-1.5,6.2,108.3,i,0.89,·,·
Cc1c(NC(=O)CN2C(=O)NC(C)(c3ccccc3Cl)C2=O)c(=O)n(-c2ccccc2)n1C (stereo not drawn),-1.7,-1.9,90.7,i,1.04,20.0,126.8
Nn1c(COc2ccccc2)nnc1SC(F)F,-1.8,-5.3,104.9,i,1.03,-14.4,119.4
Cc1ccc2nc(NC3=NCN(Cc4ccc5c(c4)OCO5)CN3)nc(C)c2c1,-2.2,1.0,·,·,·,1.4,123.7
COc1ccc(C2C(C(=O)c3ccco3)=C(O)C(=O)N2Cc2cccnc2)cc1OC (stereo not drawn),-0.4,-6.2,99.6,i,0.84,14.3,106.7
CCC(C)Sc1nc(C)nc2c1c(=O)n(C)c(=O)n2C (stereo not drawn),-2.4,-15.4,97.4,i,0.87,·,·
COc1ccccc1-c1nnc(SC(C)C(=O)O)n1-c1ccccc1 (stereo not drawn),·,-11.3,99.6,i,0.95,·,·
COc1ccccc1NC(=O)CN(C)S(=O)(=O)c1cc(C)ccc1OC,-2.4,-4.5,99.8,i,0.88,-43.3,113.5
O=C(Nc1ccc(S(=O)(=O)N2CCOCC2)cc1)c1ccc2ncsc2c1,·,·,84.4,i,0.9,·,·
Cc1cc(C)c2c(=O)[nH]c(SCC(=O)c3ccc(F)c(C)c3)nc2n1,·,-7.7,97.2,i,1.07,·,·
O=C(CN1CCN(c2ccccn2)CC1)Nc1ccc(F)cc1,-4.4,4.3,78.5,i,1,9.4,19.8
Cc1ccc(C)c(NS(=O)(=O)c2c(C)nn(C)c2C)c1,-0.3,8.2,92.8,i,0.91,·,·
CNC(=O)Nc1ccc(C2SCCS2)cc1,·,·,93.3,i,1.1,·,·
O=C(C1CCCN(S(=O)(=O)c2cccnc2)C1)N1CCn2c1nc1ccccc12 (stereo not drawn),-0.9,-4.1,110.3,i,0.97,·,·
Cc1nc2sc3c(O)cc(=O)[nH]c3c2c(C)c1C,-1.6,-3.3,99.7,·,·,-19.4,173.2
CCn1c(SCC(N)=O)nnc1C(C)C,·,-4.5,89.6,i,0.87,20.0,110.4
Cc1ccc(NC(=O)c2cccc(Cl)c2)nc1,-2.5,6.5,99.4,i,1,2.9,121.7
N#CC(Cc1ccc(OC(F)F)cc1)c1nc2ccccc2[nH]1 (stereo not drawn),0.1,3.0,104.9,i,1.15,33.3,87.9
CC(=O)CCC(=O)NCCc1ccccc1F,0.2,-5.0,99.2,i,0.99,25.0,137.9
CC(C)(C)NC(=O)CN1C(=O)/C(=C/c2ccccc2)SC1=S,·,13.7,108.6,i,1.01,59.0,102.6
CC(Cc1ccccc1)C(=O)N1CCN(C)CC1 (stereo not drawn),-2.0,-6.1,95.4,i,1.08,-42.9,113.7
CN1CCN(Cc2c(O)ccc3occ(C(=O)c4ccccc4)c23)CC1,-0.2,-20.8,105.7,i,0.92,·,·
O=C(NCC(O)c1ccccc1)c1cccc(S(=O)(=O)N2CCOCC2)c1 (stereo not drawn),-2.3,1.2,104.2,i,0.99,31.2,100.7
Cc1ccc(Cn2c(-c3nonc3N)nc3ccccc32)cc1,2.0,-9.0,103.8,i,0.92,-64.3,111.9
# Further entries:
SMILES,GALR2 ag,PKD1 kinase inh,RGS16-Gao,HSV replic up,HSV replic up primary fold,INS promoter inh,INS promoter inh cell count
CCOC(=O)C1=C(c2ccccc2)NC(SCC(N)=O)=C(C#N)C1c1cccnc1 (stereo not drawn),-2.9,3.7,101.2,i,0.83,-5.7,103.5
CC(OCC(O)CN(C)Cc1nc2ccccc2c(=O)[nH]1)c1ccc(Cl)cc1 (stereo not drawn),·,-4.0,162.6,i,0.97,21.4,90.9
Cc1ccc(S(=O)(=O)N2CCCSCC2)cc1,-3.0,7.3,106.0,i,1.03,·,·
COC(=O)CSc1nnc(-c2ccc(S(=O)(=O)NCc3cccs3)cc2)o1,-4.4,-0.9,101.1,i,0.96,·,·
Cc1cccn2c(=O)c(/C=C(\C#N)S(=O)(=O)c3ccccc3)c(N3CCN(C)CC3)nc12,-1.7,9.6,102.1,i,1,·,·
CCSC1=NCCN1S(=O)(=O)c1ccc(NC(C)=O)cc1,·,-4.7,99.3,·,·,7.7,108.0
O=C(CN(C(=O)CCC(=O)Nc1ccccn1)c1ccc2c(c1)OCO2)NCc1ccco1,-0.1,1.3,87.5,i,1.06,·,·
CCn1c(SCC(=O)Nc2cc(C)on2)nnc1-c1ccncc1,-1.9,-5.3,99.0,i,0.73,12.1,92.9
O=C1c2cccc3cccc(c23)C(=O)N1CCCc1n[nH]c(=S)n1-c1ccccc1,·,-7.8,86.0,i,1,0.0,74.9
Nc1ccc(C(=O)Nc2ccc3nc(-c4cccnc4)[nH]c3c2)cc1,-3.5,-9.7,98.8,·,·,-7.3,211.7
Cn1c(=O)c2cc(S(=O)(=O)NCCC(=O)Nc3ccc(Cl)cc3)ccc2n(C)c1=O,-0.7,-9.7,100.7,i,0.94,-14.3,71.1
COc1ccc(C)cc1NC(=O)C1CCCCC1C(=O)O (stereo not drawn),-2.1,-8.4,97.7,i,0.93,-142.1,96.0
COc1ccc(C2CC(c3ccc4ccccc4c3)=NN2C(=O)CN2CCC(C(N)=O)CC2)cc1 (stereo not drawn),·,-4.9,98.4,i,0.91,·,·

# In the list so far, these have a nitro group on carbon:
SMILES,GALR2 ag,PKD1 kinase inh,RGS16-Gao,HSV replic up,HSV replic up primary fold,INS promoter inh,INS promoter inh cell count
CSc1nc2ccccc2n1Cc1cccc([N+](=O)[O-])c1,-1.0,8.8,101.9,i,1.06,3.2,122.8
CC1=NCCN1S(=O)(=O)c1cccc([N+](=O)[O-])c1,·,1.3,96.5,i,1.05,·,·
